# TAR Tat displ – HIV-1 TAR-Tat binding disruption | HIV-1 TAR RNA, Tat peptide displacement FRET; active compounds read high | z-score (no concentration beside the values) | actives 0.6% (n = 100,000);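 also: score is relative to mean and SD of negative controls; some compounds called inactive have numbers as strong as hits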
# CDC25B CDK2 inh – human CDC25B-CDK2/CyclinA binding inhibition; P30305+P24941; HTRF CDC25B-CDK2/CyclinA binding, anti-His/anti-Flag; active compounds read high; z-score (test concentration not listed); actives 0.72% (n = 94,000); AID 1259370;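 also: score is relative to mean and SD of negative controls; strong numbers were not always called active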
# * hit, by the source's call; x = not tested or not shown.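 The calls were made as follows: active = z-score from 3 up in half or more of its runs; inactive = the rest.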
SMILES,TAR Tat displ,CDC25B CDK2 inh
COc1ccccc1NC(=O)CSc1nncn2c1cc1sccc12,1.68,x
COc1ccc(C2NC(=O)c3n[nH]c(C)c32)cc1 (centres undefined),0.33,-0.48
CC1(C)CC(=O)C2=C(C1)NC(=O)CC2c1cccc(Br)c1 (centres undefined),0.84,-0.4
COC(=O)Cn1c(SCCOc2ccccc2OC)nc2ccccc21,-1.54,-0.26
Clc1ccc(-c2noc3ncnc(N(Cc4ccco4)C4CCCC4)c23)cc1,-0.82,-2.82
Cc1ccc(Nc2nc3ccccc3n3c(C)nnc23)c(Cl)c1,0.95,-0.76
Oc1ccc(Br)cc1-c1nc2cnccn2c1NC1CCCCC1,x,1.13
CCc1ccccc1NC(=O)NC(C)c1c(-n2cccc2)sc(C)c1C (centres undefined),-0.55,-3.02
CCOC(=O)c1c(NC(=O)C(C)(C)C)sc(C)c1C,0.29,1.21
Cc1ccc(-n2nc3c(c2NC(=O)c2ccc(F)cc2)CSC3)cc1,x,-0.5
CC(=O)CNC(=O)Cc1ccccc1,x,-2.03
Cc1nc(-c2csc(S(=O)(=O)Nc3ccccc3)c2)no1,1.18,x
O=C(CSc1ccc(F)cc1)Nc1nc(-c2ccncc2)cs1,0.73,x
Cc1cccc(-n2nnc(-c3nc(-c4ccccc4C)no3)c2N)c1,-0.19,x
Cc1cc(C)n(-c2nnc(N3CCN(c4ccccc4)CC3)c3ccccc23)n1,0.05,x
COc1ccc(-c2cc(C)nc3c(-c4ccc(OC)c(OC)c4)c(C)nn23)cc1,-1.78,-0.95
O=c1c(NCCc2ccc(Cl)cc2)nccn1-c1ccc2c(c1)OCCO2,0.27,x
O=C(c1cc2c(s1)-c1ccsc1CC2)N1CCCc2ccccc21,-0.6,x
CC(=O)N(CCCN(C)C)c1nc2cc3c(cc2s1)OCO3,0.3,x
COc1ccc(OCC(=O)Nc2ccc(OCc3cc(=O)n4cc(Cl)ccc4n3)cc2)cc1,-0.56,x
CC1(C)CC(=O)C2=C(C1)Nc1ccccc1NC2c1ccc2c(c1)OCO2 (centres undefined),-14.9,-0.48
O=C(CSc1ccc(-c2cccs2)nn1)Nc1ccc2c(c1)OCO2,0.92,x
CS(=O)(=O)N1CCCc2cc(C(=O)NCc3ccc4c(c3)OCO4)ccc21,0.15,-2.29
COc1cccc2c(CO)ccc(OC)c12,0.93,1.35
O=C(NCC(c1ccco1)S(=O)(=O)c1ccccc1)C1CC1 (centres undefined),1.14,x

# Other records
SMILES,TAR Tat displ,CDC25B CDK2 inh
CN1c2ccccc2N(C)C1c1ccccc1,1.81,-2.05
COc1ccc(-c2nnc3c4ccccc4c(C)nn23)cc1S(=O)(=O)N(C)CCO,0.62,-1.68
O=C(CN1N=NC2C(=O)N(c3ccc(F)c(F)c3)C(=O)C21)Nc1ccccc1F (centres undefined),2.61,x
Cc1sc2ncn(CC(=O)N(C)C3CCCCC3)c(=O)c2c1S(=O)(=O)N1CCN(C)CC1,-0.17,14.6*
Fc1cc(F)c2nc(N3CCN(c4ccccc4)CC3)sc2c1,-0.7,-0.82
O=C(O)CSC(SCC(=O)O)c1ccc2c(c1)OCO2,x,-2.32
Cc1ccc(N2C(=O)c3n[nH]c(C)c3C2c2ccc(C(C)C)cc2)cc1 (centres undefined),1.97,x
CC1CCCCN1CCCNc1nc2ccccc2c2nc(-c3ccccc3)nn12 (centres undefined),-0.47,0.34
CCCNC(=O)c1oc2ccc3c(c2c1C)C=CC(C)(C)O3,1.47,-1.02
Cc1cc(C)n2ncc(C(=O)NCC3CCCO3)c2n1 (centres undefined),0.58,x
CCSc1nnc(NC(=O)CN(C)S(=O)(=O)c2ccc3c(c2)CCC(=O)N3)s1,x,-1.41
O=C(O)/C(=C/c1ccsc1)c1cc(F)cc(F)c1,x,-1.22
C=CCn1c(SCC(=O)Nc2nnc(-c3cccs3)s2)nnc1-c1ccco1,x,-1.23
Cc1c(NC(=O)OCc2ccccc2)c(=O)n(-c2ccccc2)n1C,0.1,0.55
CNC(=O)c1c(NC(=O)c2ccc(C)c(C)c2)sc2c1CCC2,0.77,x
COc1cccc(Nc2nc(NCCC(C)C)nc3c2cnn3C)c1,1.11,x
CC(=O)c1ccc(C(F)(F)F)cc1[N+](=O)[O-],x,-1.59
COc1ccc(OC)c(S(=O)(=O)NCc2cccn2Cc2ccc(F)cc2)c1,0.87,x
CCCCSc1ncc(CO)n1Cc1ccc(C)cc1,0.99,x
Cn1c(=O)oc2cc(S(=O)(=O)NCCn3c(C(F)(F)F)nc4ccccc43)ccc21,-0.88,x
Cc1ccc(C2Nn3c(C)nnc3SC2C(=O)Nc2cc(C)ccc2C)cc1 (centres undefined),0.68,-2.12
Cc1ccc(/C=C/c2nc(C#N)c(N3CCN(C(=O)c4cccs4)CC3)o2)cc1,0.45,-1.68
CC1CCCN(S(=O)(=O)c2cccc(-c3cn4ccccc4n3)c2)C1 (centres undefined),2.73,-0.84
CC(C)CN1CN(Cc2ccco2)CNC1=S,x,-0.9
CCCn1cc(S(=O)(=O)c2cccc(Cl)c2)c(=O)c2cc(F)c(N3CCN(C)CC3)cc21,0.23,x

# Next section
SMILES,TAR Tat displ,CDC25B CDK2 inh
CCN(CC)S(=O)(=O)c1ccc(-c2coc(C)n2)cc1,0.6,x
Cc1ccc(-c2cnnc(-n3nc(C)c4c3NC(=O)CC4c3cccc(Cl)c3)n2)cc1 (centres undefined),0.87,-0.87
O=C(Nc1ccccc1Br)c1ncoc1-c1cccs1,2.04,x
CC(C)NC(=O)Cn1c(=O)n(CC2CCC(C(=O)NC(C)C)CC2)c(=O)c2sccc21 (centres undefined),-1.44,x
CCc1ccc(-n2nnc(-c3nc(-c4ccccc4)no3)c2C)cc1,0.32,x
CC1C(=O)C(C)C(c2ccccc2F)NC1c1ccccc1F (centres undefined),0.88,x
O=C(Oc1ccccc1N1CCOCC1)c1cccnc1Oc1ccccc1,x,-1.86
N#Cc1nc(COc2ccccc2F)oc1NCc1ccc2c(c1)OCO2,-0.77,0.12
CC(=O)N1c2ccc(S(=O)(=O)N(C)CC(=O)N3c4ccccc4CC3C)cc2CC1C (centres undefined),1.03,x
O=C(Nc1ccc(Cl)cn1)c1cccc2c(Br)cccc12,-1.48,-4.42
CC(C)CCNC(=O)c1noc2c1CSc1ccccc1-2,1.22,-0.89
O=C(/C=C(\O)c1ccccc1)c1ccccc1O,2.69,x
COC(=O)c1ccc2oc(=O)n(C)c2c1,2.41,x
O=C(CN1Cc2ccccc2C1=O)NCc1ccc2c(c1)OCO2,-0.28,x
CCCc1nc(SC)ncc1C(=O)Nc1cc(C)cc(C)c1,-5.5,x
CCOC(CC(=O)NNC(=S)NC)OCC,x,-0.32
Cc1cn2c(=O)c(S(=O)(=O)Nc3ccc(F)cc3)c(C)nc2s1,-0.99,x
CSC(=NC#N)N1CCN(c2ccc([N+](=O)[O-])cn2)CC1,x,-0.33
CCC(Sc1nccn1C)C(=O)Nc1cc(C)on1 (centres undefined),-0.41,-0.55
N#Cc1cc2c(=O)n3ccccc3nc2n(CC2CCCO2)c1=O (centres undefined),0.59,0.72
COc1cc(OC)cc(-n2nnc(-c3nsc(NC(=O)c4cccs4)n3)c2C)c1,0.18,x
Cc1ccc(F)cc1Nc1ncnc2c1cnn2C,-0.45,x
Cc1ccc(Nc2c(-c3ccc(O)cc3)nc3cnccn23)cc1,x,-0.73
Cc1cc(C)cc(NC(=O)C2CCCN(c3nn4c(=O)cc(C)nc4s3)C2)c1 (centres undefined),2.76,-2.13
CC(C)Cc1nnc(NC(=O)c2nc(S(C)(=O)=O)ncc2Cl)s1,1.85,1.06

# (list continues)
SMILES,TAR Tat displ,CDC25B CDK2 inh
COc1cc(C2Nc3ccc4ccccc4c3C3=C2CC(C)(C)CC3=O)ccc1O (centres undefined),0.3,-2.09
Cc1ccc(-n2ncc3c(NCCOCCO)ncnc32)cc1,1.42,x
Cc1cc(C)c(NS(=O)(=O)c2cc3c4c(c2)CC(=O)N4CCC3)c(C)c1,1.71,x
Cc1cc2n(n1)CCC(=O)N2C(C)C(=O)NCc1ccco1 (centres undefined),-0.32,x
COc1ccccc1/C=C\C(=O)O,2.89,x
CC(C)(C)C(=O)Nc1c(C(=O)N2CCN(c3ccccc3)CC2)oc2ccccc12,0.3,x
Fc1cccc(CSc2nc3ncccc3[nH]2)c1,0.02,x
CCS(=O)(=O)c1ccc2oc(=O)[nH]c2c1,x,0.58
CC(C)NC(=O)c1ccc2c(c1)sc1nc(-c3ccc(F)cc3)cn12,1.47,x
CN(C)S(=O)(=O)c1ccc2[nH]ccc2c1,-0.04,0.69
Cc1ccc(S(=O)(=O)[C@H]2CS(=O)(=O)C[C@@H]2NCCCOC(C)C)cc1,-0.25,0.03
CCOc1ccc(S(=O)(=O)N2CCN(C)CC2)cc1-c1nc2c(C(C)(C)C)nn(C)c2c(=O)[nH]1,x,-0.48
Cc1ccc(Nc2nc(NCCN3CCOCC3)nc(N)c2[N+](=O)[O-])cc1C,0.45,x
CCc1nc2c(=O)oc3ccccc3c2n1CC,0.02,-1.1
Cc1cccc(C)c1OC(C)c1nc2ccccc2[nH]1 (centres undefined),0.61,-0.87
Oc1c(C(c2ccc(C(F)(F)F)cc2)N2CCOCC2)ccc2cccnc12 (centres undefined),x,-0.79
CC1CCC(NC(=O)CN(C)S(=O)(=O)c2ccc3c(c2)CCC(=O)N3)CC1 (centres undefined),x,-0.35
CC1Cc2cc(/C(O)=C3/C(=O)C(=O)N(CC4CCCO4)C34C(=O)N(C)c3ccccc34)ccc2O1 (centres undefined),1.19,1.33
CC(C)Oc1ccc(N2CC(O)=C(c3nc4ccccc4n3C)C2=N)cc1,1.01,-0.55
CN1C(=O)C2(OCCO2)c2ccccc21,x,-0.59
COCCCNc1nc2c(S(=O)(=O)c3cccc(Cl)c3)nnn2c2ccsc12,-0.84,x
CC12OC(=O)CC3C(C)(C)[C@H](O)C=C[C@]3(C)C1CC[C@]1(C)C2=CC(=O)O[C@H]1c1ccoc1 (some centres undefined),2.45,x
CCN(CCNC(=O)Cn1c2ccccc2c2nc(=O)cc(C)n21)c1ccccc1,-2.13,-1.27
CNc1oc(/C=C/c2cccc(OC)c2)nc1C#N,0.98,-1.08
Cc1ccccc1OCc1nnnn1-c1ccc(Br)cc1,0.34,-0.08

# For reference, some entries already given.
SMILES,TAR Tat displ,CDC25B CDK2 inh
CCS(=O)(=O)c1ccc2oc(=O)[nH]c2c1,x,0.58
CC(C)NC(=O)c1ccc2c(c1)sc1nc(-c3ccc(F)cc3)cn12,1.47,x
CN(C)S(=O)(=O)c1ccc2[nH]ccc2c1,-0.04,0.69
Cc1ccc(S(=O)(=O)[C@H]2CS(=O)(=O)C[C@@H]2NCCCOC(C)C)cc1,-0.25,0.03
CCOc1ccc(S(=O)(=O)N2CCN(C)CC2)cc1-c1nc2c(C(C)(C)C)nn(C)c2c(=O)[nH]1,x,-0.48
Cc1ccc(Nc2nc(NCCN3CCOCC3)nc(N)c2[N+](=O)[O-])cc1C,0.45,x
CCc1nc2c(=O)oc3ccccc3c2n1CC,0.02,-1.1
Cc1cccc(C)c1OC(C)c1nc2ccccc2[nH]1 (centres undefined),0.61,-0.87
Oc1c(C(c2ccc(C(F)(F)F)cc2)N2CCOCC2)ccc2cccnc12 (centres undefined),x,-0.79
CC1CCC(NC(=O)CN(C)S(=O)(=O)c2ccc3c(c2)CCC(=O)N3)CC1 (centres undefined),x,-0.35
CC1Cc2cc(/C(O)=C3/C(=O)C(=O)N(CC4CCCO4)C34C(=O)N(C)c3ccccc34)ccc2O1 (centres undefined),1.19,1.33
CC(C)Oc1ccc(N2CC(O)=C(c3nc4ccccc4n3C)C2=N)cc1,1.01,-0.55
CN1C(=O)C2(OCCO2)c2ccccc21,x,-0.59
COCCCNc1nc2c(S(=O)(=O)c3cccc(Cl)c3)nnn2c2ccsc12,-0.84,x
CC12OC(=O)CC3C(C)(C)[C@H](O)C=C[C@]3(C)C1CC[C@]1(C)C2=CC(=O)O[C@H]1c1ccoc1 (some centres undefined),2.45,x
CCN(CCNC(=O)Cn1c2ccccc2c2nc(=O)cc(C)n21)c1ccccc1,-2.13,-1.27
CNc1oc(/C=C/c2cccc(OC)c2)nc1C#N,0.98,-1.08
Cc1ccccc1OCc1nnnn1-c1ccc(Br)cc1,0.34,-0.08

# Remaining list, next part:
SMILES,TAR Tat displ,CDC25B CDK2 inh
CN1C(=O)Cc2cc(S(=O)(=O)CCC(=O)NCCc3cccs3)ccc21,0.69,x
CC1(C)CC(N=CC2=C(O)c3ccccc3C2=O)CC(C)(C)N1,x,-2.59
O=C(Nc1cccc(Cl)c1)c1cc2c(=O)n3ccccc3nc2s1,x,-0.46
CC1=C(C(=O)Nc2ccc(F)cc2)C2(CCN(S(C)(=O)=O)CC2)OC1=O,-0.1,x
COc1cc(OC)cc(C(=O)Nc2c(C)nc3sccn3c2=O)c1,1.9,x
O=c1c(SCc2cccc(Cl)c2)nccn1-c1cccc(F)c1,-0.49,x
Cc1cc(C)c2c(=O)cc(C(=O)Nc3sc4c(c3C(N)=O)CCCC4)oc2c1,-0.61,-1.7
Cc1nn(C)cc1CNC(=O)c1cc2nc3c(c(C(F)(F)F)n2n1)CCc1ccccc1-3,x,-1.57
COc1ccc(/C=C/c2nc(C#N)c(N3CCN(c4ccccc4)CC3)o2)cc1OC,2.28,0.25
COc1cc(-c2noc(C3CCCN(S(=O)(=O)c4ccc(C)cc4)C3)n2)ccc1OC(C)C (centres undefined),2.15,x
CCC(CO)n1cnnc1-c1ccncc1 (centres undefined),x,-2.13
CC(C)c1ccc(CNc2nc(-c3ccco3)nn2S(=O)(=O)c2ccc(Cl)cc2)cc1,0.31,-1.56
COc1ccc(CCN2C(=O)c3ccccc3NC2c2ccc(N(C)C)cc2)cc1OC (centres undefined),x,-1.22
O=C(CCCn1c(=O)c2cccn2c2cccnc21)NCC1CCCO1 (centres undefined),0.95,x
CCNc1nc(NCCCOCC)nc2c1cnn2C,1.42,x
CCC(=O)N1c2ccccc2NC2=C(C(=O)CCC2)C1c1cccs1 (centres undefined),0.93,-0.89
Cc1ccc2c(c1)Cc1c([nH]c(-c3cccnc3)nc1=S)O2,1.35,-2.68
CCOC(=O)CSc1[nH]c(=O)cc(C)c1C#N,0.79,-0.16
CCOC(=O)N1CCN(C(=O)Nc2sc3nc4n(c(=O)c3c2C)CCC(C)CC4)CC1 (centres undefined),0.52,0.72

# Assay outcomes: PubChem, Center for Chemical Genomics, University of Michigan
